2A StopGo: lowers the luciferase signal of an FMDV 2A StopGo reporter; human cells with a luciferase reporter of 2A StopGo recoding; control for the full effect not named in the record; Potency, µM (series often up to 57.9 µM), for inactives: top-dose signal change, negative = less light; hit rate 1.2% among 410,000; AID 1159524; active = well fitted falling curve with a large enough effect; inconclusive = small, poorly fitted or top-dose-only effect; inactive = no such curve, though single readings can be large or run the other way; tested in HEK293T cells; note: % is set by controls: 0 for no effect and ±100 for the full control effect; nearly all actives have a fitted effect of over 45% in size; luciferase light after 4 h
Marburg entry inh: Marburg virus entry inhibition; Marburg virus pseudotyped entry inhibition, cell reporter; control for the full effect not named in the record; about a third of the inactives were read at about 46 µM; hit rate 1.8% among 300,000; Potency, µM (doses to about 37.8 µM), for inactives: top-dose activity change, negative = inhibition, usual class: inhibitors; AID 540276; active = well fitted inhibition curve with a large enough effect; inconclusive = small, poorly fitted or top-dose-only effect, or effect the other way; inactive = flat fitted curve, though single readings scatter; tested in HEK293 cells; about a fifth of its hits are not listed in these tables; note: % is set by controls: 0 for no effect and ±100 for the full control effect; luciferase read-out
NS1 inh: influenza NS1 inhibition; S. cerevisiae slowed by influenza A NS1, growth recovery by OD600; AID 2326; hit rate 0.4% among 270,000; Potency, µM (top dose mostly 46.1 µM), for inactives: at the top dose activity, positive = more growth; note: actives are rising curves; nearly all actives have a fitted effect of over 50% in size
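Compounds were scored for reversing the slow growth caused by influenza A NS1 in S. cerevisiae, measured by optical density at 600 nm. Assay medium contained 2% galactose at pH 6.0; NS1-free yeast of the same strain were the positive control.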
LASV entry inh: Lassa virus entry inhibition; Lassa virus pseudotype entry inhibition, cell reporter; control for the full effect not named in the record; Potency, µM (highest dose often 37.9 µM), inactives show top-dose activity change, negative = inhibition, usual class: inhibitors; hit rate 1.2% among 300,000; active means well fitted inhibition curve with a large enough effect; inconclusive means small, poorly fitted or top-dose-only effect, or effect the other way; inactive means flat fitted curve, though single readings scatter; tested in HEK293 cells; note: % is set by controls: 0 for no effect and ±100 for the full control effect; nearly all actives have a fitted effect of over 50% in size; luciferase read-out
Cruzain noTriton: inhibitors of Trypanosoma cruzi cruzain without detergent; P25779; purified cruzain, Z-FR-AMC fluorescence, no detergent; Potency, µM, without a hit: max response, negative = inhibition, hits mostly inhibitors; hit rate 2.3% among 200,000; AID 1476; active = well fitted curve in the direction sought with a large enough effect; inconclusive = small, poorly fitted or top-dose-only effect, or another doubt; inactive = no such curve, though single readings can be large; an effect the other way counts as inactive or inconclusive;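 note: plate controls were enzyme without inhibitor for no effect and buffer without enzyme for full effect; nearly all actives have a fitted effect of over 40% in size; top concentration of the series not given in the record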
Target sequence (P25779 123-467 limits assumed): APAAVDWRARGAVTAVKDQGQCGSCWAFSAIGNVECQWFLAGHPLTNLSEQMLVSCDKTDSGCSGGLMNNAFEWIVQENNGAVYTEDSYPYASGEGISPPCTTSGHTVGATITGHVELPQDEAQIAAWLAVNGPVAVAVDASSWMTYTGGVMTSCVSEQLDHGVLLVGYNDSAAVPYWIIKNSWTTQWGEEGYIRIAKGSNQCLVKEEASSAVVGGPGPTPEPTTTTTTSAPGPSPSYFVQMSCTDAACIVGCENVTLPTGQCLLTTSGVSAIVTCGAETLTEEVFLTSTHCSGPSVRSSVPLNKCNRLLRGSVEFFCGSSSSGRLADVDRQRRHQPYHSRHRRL
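Purified cruzain at 1.5 nM, pre-incubated 15 min with compound at room temperature in 100 mM sodium acetate pH 5.5, 5 mM DTT, 0.00005% Triton X-100. Reaction started with 2 uM Z-FR-AMC; AMC fluorescence increase over 60 s gives rate.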
Cruzain inh Det: inhibitors of Trypanosoma cruzi cruzain with detergent; P25779; purified cruzain, Z-FR-AMC fluorescence, 0.01% Triton; Potency, µM, for inactives: max response, negative = inhibition, hits mostly inhibitors; hit rate 0.43% among 200,000; active = well fitted curve in the direction sought with a large enough effect; inconclusive = small, poorly fitted or top-dose-only effect, or another doubt; inactive = no such curve, though single readings can be large; an effect the other way counts as inactive or inconclusive;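 note: plate controls were neutral wells for no effect and buffer without enzyme for full effect; nearly all actives have a fitted effect of over 40% in size; top concentration of the series not given in the record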
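Detergent-containing run (0.01% Triton X-100) in acetate buffer pH 5.5 with 5 mM DTT: enzyme at 1.5 nM final, 15 min compound preincubation at room temperature, then 2 uM Z-FR-AMC substrate. Activity taken as 60 s fluorescence increase at 360/450 nm.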
RE007 growth inh: less growth of the S. pombe RE007 Vpr strain | hit rate 0.21% among 360,000 | S. pombe RE007 Vpr strain, BacTiter-Glo ATP luminescence, 24 h; control for the full effect not named in the record | Potency, µM (highest dose often 92.2 µM), for the others: at the highest dose activity change, negative = less growth; active = well fitted falling curve with a large enough effect; inconclusive = small, poorly fitted or top-dose-only effect; inactive = no such curve, though single readings can be large or run the other way;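 note: % is set by controls: 0 for no effect and ±100 for the full control effect; nearly all actives have a fitted effect of over 50% in size; the assay follows cell death caused by Vpr and the record does not say whether a fall means rescue or toxicity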
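Fission yeast RE007 carrying one integrated HIV-1 vpr copy, seeded at OD 0.01 in PMG+AL medium with 23 nL pinned compound. Grown 24 h at 30 degrees; viability read by BacTiter-Glo luminescence after 5 min.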
SARS PLpro yeast: SARS-CoV PLP inhibition in yeast; hit rate 0.19% among 330,000; Potency, µM (series often up to 32.9 µM), inactives show at the highest dose activity, positive = growth rescue; S. cerevisiae expressing SARS-CoV PLpro, growth rescue; control for the full effect not named in the record; note: 0% is about no effect; nearly all actives have a fitted effect of over 55% in size; growth read by luminescence after 48 h
Active calls of the source: *; [ ] = dose if it differs, or a comment. Unless noted, calls come from the whole dose curve; as a rule, active means well fitted rising curve with a large enough effect; inconclusive means small, poorly fitted or top-dose-only effect; inactive means no such curve, though single readings can be large or run the other way. Potency is the fitted concentration of half-maximal effect.

What do the screens show for `CC(=O)c1cccc(OCC(=O)Nc2cc(S(=O)(=O)N3CCOCC3)ccc2N2CCCC2)c1`?
2A StopGo: -16%; Marburg entry inh: 16%; LASV entry inh: 1%; RE007 growth inh: 2%; SARS PLpro yeast: -2%

How did Cn1c(=O)n(CC#N)c2ccccc21 do in these assays?
2A StopGo: 8%; Marburg entry inh: -2%; NS1 inh: -2%; LASV entry inh: -11%; Cruzain noTriton: -3%; Cruzain inh Det: 7.0%; RE007 growth inh: -3%; SARS PLpro yeast: 6%

What do the screens show for `O=C(N/C(=C\c1cccc([N+](=O)[O-])c1)C(=O)N(CCO)CCO)c1ccco1`?
2A StopGo: 10%; Marburg entry inh: 29%[46.1 µM]; NS1 inh: 0%; LASV entry inh: 2%; RE007 growth inh: 10%; SARS PLpro yeast: 0%

What do the screens show for `CC1CCCCN1CC(=O)NCc1ccc2c(c1)OCO2` (centres undefined)?
2A StopGo: -6%; Marburg entry inh: -10%; NS1 inh: -7%; LASV entry inh: 0%; Cruzain noTriton: -3%; Cruzain inh Det: 2.3%; RE007 growth inh: 9%; SARS PLpro yeast: 15%

Results for Cc1cccc(C)c1N1CCN(c2ccc3nnc(C(F)(F)F)n3n2)CC1 ?
2A StopGo: 0%; Marburg entry inh: inconclusive; NS1 inh: 9%; LASV entry inh: inconclusive; Cruzain noTriton: inconclusive; Cruzain inh Det: -4.2%; RE007 growth inh: 2%; SARS PLpro yeast: -15%

What do the screens show for `Cc1ccc(NC(=O)C2C3/C=C\CCCCC32)cc1C` (centres undefined)?
2A StopGo: 27%; Marburg entry inh: 17%; NS1 inh: 8%; LASV entry inh: -29%; Cruzain noTriton: -8%; Cruzain inh Det: 3.3%; RE007 growth inh: 9%; SARS PLpro yeast: 11%

Results for CCN(CC(=O)NCc1ccc(Cl)cc1)Cc1cc(=O)n2ccsc2n1 ?
2A StopGo: -4%; Marburg entry inh: -7%[46.1 µM]; RE007 growth inh: 3%; SARS PLpro yeast: 0%

What do the screens show for `O=C(NCCN1CCOCC1)Nc1ccc(Cl)cc1Cl`?
2A StopGo: 0%; Marburg entry inh: 13%; NS1 inh: 11%; LASV entry inh: inconclusive; Cruzain noTriton: -13%; Cruzain inh Det: -4.3%; RE007 growth inh: -13%; SARS PLpro yeast: -3%

Results for Oc1c(C(c2ccccn2)N2CCC(Cc3ccccc3)CC2)cc(Cl)c2cccnc12 (centres undefined) ?
2A StopGo: 22µM*; Marburg entry inh: inconclusive; LASV entry inh: inconclusive; RE007 growth inh: inconclusive; SARS PLpro yeast: -18%

How did COc1ccc(N2C(=O)CC(C#N)=C2N)cc1 do in these assays?
2A StopGo: 0%; Marburg entry inh: 7%[46.1 µM]; LASV entry inh: 9%[46.1 µM]; RE007 growth inh: 9%; SARS PLpro yeast: 1%

Results for C[C@@H]1C=C(C(=O)N2CCN(Cc3ccccc3)CC2)O[C@H](OCc2ccc(CO)cc2)C1 ?
2A StopGo: -22%; NS1 inh: -4%; RE007 growth inh: -1%; SARS PLpro yeast: -2%

Results for CCc1nnc(NC(=O)CCC(=O)N2CCN(c3cc(C)ccc3C)CC2)s1 ?
2A StopGo: -23%; NS1 inh: 2%; RE007 growth inh: 6%; SARS PLpro yeast: 10%

Results for CCc1ccc(Cn2c(CNS(=O)(=O)c3ccc(C)c(C)c3)nc3cccnc32)cc1 ?
2A StopGo: 76%[activator]; LASV entry inh: -9%[46.1 µM]; Cruzain noTriton: 19%; Cruzain inh Det: -5.7%

How did Cc1csc(NC(=O)c2ccccc2O)n1 do in these assays?
2A StopGo: 30%[activator]; Marburg entry inh: inconclusive; NS1 inh: -203%; LASV entry inh: -8%; Cruzain noTriton: -8%; Cruzain inh Det: -6.6%; RE007 growth inh: inconclusive; SARS PLpro yeast: -49%

Results for COc1ccc(CNc2cccc(F)c2)cc1Br ?
2A StopGo: 5%; Marburg entry inh: -7%; NS1 inh: -60%; LASV entry inh: 14%; Cruzain noTriton: -16%; Cruzain inh Det: -5.5%; RE007 growth inh: -4%; SARS PLpro yeast: -26%

What do the screens show for `COc1ccccc1CNC(=O)c1oc2ccc3c(c2c1C)C(=O)CC(C)(C)O3`?
2A StopGo: 11%; Marburg entry inh: -15%[46.1 µM]; Cruzain noTriton: 7%; Cruzain inh Det: -4.3%

Results for CSc1nsc(SCC(=O)N2CCN(c3ccccc3)CC2)n1 ?
2A StopGo: -19%; Marburg entry inh: -7%; NS1 inh: -7%; LASV entry inh: -12%; Cruzain noTriton: 2%; Cruzain inh Det: -2.9%; RE007 growth inh: 6%; SARS PLpro yeast: 0%

What do the screens show for `CCC(C)NC(=O)Cn1ncc2c(C)n(Cc3ccc(F)cc3)c(C)c2c1=O` (centres undefined)?
2A StopGo: 4%; Marburg entry inh: -3%[46.1 µM]; LASV entry inh: -6%[46.1 µM]; Cruzain noTriton: 11%; Cruzain inh Det: -3.3%

What do the screens show for `O=C(Cc1ccc(Cl)cc1)NNC(=O)C(=O)NC1CCCCC1`?
2A StopGo: 11%; Marburg entry inh: 1%[46.1 µM]; LASV entry inh: -14%[46.1 µM]; RE007 growth inh: 9%; SARS PLpro yeast: 3%

How did CCOc1ccc(CCNC(=O)Cn2nc(CC)n3c(cc4sccc43)c2=O)cc1 do in these assays?
2A StopGo: 1%; Marburg entry inh: 11%[46.1 µM]; Cruzain noTriton: 5%; Cruzain inh Det: -1.5%

How did Cc1ccc(S(=O)(=O)Nc2ccsc2C#N)cc1 do in these assays?
2A StopGo: -1%; Marburg entry inh: inconclusive; NS1 inh: 9%; LASV entry inh: 3%[46.1 µM]; RE007 growth inh: 0%; SARS PLpro yeast: 1%

Among those listed so far, these have a furan ring, fused or not:
What do the screens show for `O=C(N/C(=C\c1cccc([N+](=O)[O-])c1)C(=O)N(CCO)CCO)c1ccco1`?
2A StopGo: 10%; Marburg entry inh: 29%[46.1 µM]; NS1 inh: 0%; LASV entry inh: 2%; RE007 growth inh: 10%; SARS PLpro yeast: 0%

What do the screens show for `COc1ccccc1CNC(=O)c1oc2ccc3c(c2c1C)C(=O)CC(C)(C)O3`?
2A StopGo: 11%; Marburg entry inh: -15%[46.1 µM]; Cruzain noTriton: 7%; Cruzain inh Det: -4.3%

Compounds above that contain a cyano group (three):
How did Cn1c(=O)n(CC#N)c2ccccc21 do in these assays?
2A StopGo: 8%; Marburg entry inh: -2%; NS1 inh: -2%; LASV entry inh: -11%; Cruzain noTriton: -3%; Cruzain inh Det: 7.0%; RE007 growth inh: -3%; SARS PLpro yeast: 6%

How did COc1ccc(N2C(=O)CC(C#N)=C2N)cc1 do in these assays?
2A StopGo: 0%; Marburg entry inh: 7%[46.1 µM]; LASV entry inh: 9%[46.1 µM]; RE007 growth inh: 9%; SARS PLpro yeast: 1%

How did Cc1ccc(S(=O)(=O)Nc2ccsc2C#N)cc1 do in these assays?
2A StopGo: -1%; Marburg entry inh: inconclusive; NS1 inh: 9%; LASV entry inh: 3%[46.1 µM]; RE007 growth inh: 0%; SARS PLpro yeast: 1%

From PubChem BioAssay
